# RN4220 kill – growth inhibition of S. aureus RN4220, primary screen, OD600. 16 h. inhibition, % (concentration not given with the values). 330,000 tested, 0.33% active. AID 1259311, 2017;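 active = z-score of -3 or lower and OD600 up to 0.18 on both plates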;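 note: plate controls were untreated cells for no effect and reference antibiotic for full effect; stock transfer was 100 nL into about 80 µL; one replicate is shown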
# Mtb hypoxia inh – PubChem AID 1159583. 300,000 tested, 0.1% active. fluorescence inhibition, % (test concentration not listed). M. tuberculosis hypoxia-regulated fluorescent reporter, fluorescence;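 active = 35 to 45% if threefold the growth effect, above 45% if 1.5-fold the growth effect; inactive = the rest, general growth blockers included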;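 note: wells of about 50 µL received 100 nL stock; 0% = vehicle wells and 100% = reference inhibitor wells; whole bacteria with a GFP reporter of the hypoxia response; strong numbers were not always called active; many hits fall short of the cut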
# PrP 5UTR inh – inhibition of PrP 5' UTR reporter expression; cell-based PrP 5' UTR mRNA reporter, plate reader; AID 488862, 2010; inhibition, % (concentration not given with the values); 340,000 tested, 0.35% active;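 active = every replicate at 50% or more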;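 note: 0 = median of the neutral control wells; tested in H4 reporter cells; numbers are from one replicate; inactives centre near -14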
# ugtP null kill – growth inhibition of ugtP-null S. aureus, primary screen, RN4220 ugtP deletion, OD600. 16 h; some inactives read as strong as hits. growth inhibition, % (concentration not given with the values). 330,000 tested, 0.54% active. AID 1259309, 2017;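 active = z-score under -3 and OD600 up to 0.15 on both plates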;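 note: plate controls were untreated wells for no effect and antibiotic for full effect; wells of about 80 µL received 100 nL stock; the first replicate is given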
# Autofluor counter – counter-screen for toxin protease inhibitors: compound fluorescence; compound autofluorescence counterscreen, microsphere flow cytometry; active compounds read high; AID 624483; 360,000 tested, 3.1% active; fluorescence intensity (no concentration beside the values);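 active = at least 3 SD above the mean of all compounds, about 16000 in these data; inconclusive = too few beads counted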;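 note: 100 nL of 1 mM stock went into each well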
# BJeLR viability – MLPCN primary cell-based screen for lethality selective to Ras in HRASV12 cells. BJeLR (HRASV12) viability, CellTiter-Glo ATP luminescence, 48 h; reference of the scale not given here. inhibition, % (no concentration beside the values). 300,000 tested, 0.17% active;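 active = replicate mean above 50%; inconclusive = above 50% but judged a plate artefact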;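 note: 50 nL library stock added to about 25 µL; numbers are from one replicate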
# Mtb hypoxia inh growth – recorded beside Mtb hypoxia inh, whose call it bears; growth inhibition, %; measured here: M. tuberculosis growth (absorbance);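 0% = vehicle and 100% = reference antibiotic; read after six days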
# Starred values were filed as active, the others as inactive; ? = inconclusive; / = not tested or not shown.
SMILES,RN4220 kill,Mtb hypoxia inh,Mtb hypoxia inh growth,PrP 5UTR inh,ugtP null kill,Autofluor counter,BJeLR viability
COc1cccc(C(C)NC(=S)NCc2ccc(F)cc2)c1 (stereo not drawn),-3.5,-4,8,-14,-8,5175,6
COC(=O)c1cc(NC(=O)C2(S(=O)(=O)c3ccc(C)cc3)CC2)cc(C(=O)OC)c1,4.9,9,-3,-1,0,2040,7
CCN(CC)C(=O)C1CCC(CNS(=O)(=O)c2cccc3nsnc23)CC1 (stereo not drawn),0.9,11,1,-10,12,6277,0
Cc1cccc(NC(=O)CC(C)(C)C)c1,-0.7,2,16,-10,-3,7685,8
CCC(C(=O)NC1CCCC1)N(C(=O)Cn1nnc(-c2ccc(C)o2)n1)c1ccc(OC)cc1 (stereo not drawn),2.5,-2,-2,0,1,4327,3
CCOC(=O)N1CCN(CC(=O)Nc2ccc(C)c(Br)c2)CC1,2.1,3,3,-34,1,4190,5
CCOC(=O)c1ccc2nc(NC(NC(C)=O)(C(=O)OC)C(F)(F)F)sc2c1 (stereo not drawn),5.2,0,8,-4,9,11629,2
CS(=O)(=O)N(CC(=O)Nc1ccccc1Br)Cc1ccccc1,6.0,15,7,-45,3,3830,1
O=C(NC1=NCCS1)C1CCN(S(=O)(=O)c2ccccc2C(F)(F)F)CC1,-0.7,-7,-5,-1,4,3151,/
Cc1cc(CNC(=O)COc2ccc(F)cc2Cl)cc(C)c1O,5.9,5,1,-22,3,2106,-3
CCCc1cc(=O)[nH]c(SCC(=O)N2CCN(S(=O)(=O)c3ccc(C)cc3)C2)n1,5.4,12,5,-8,9,4036,6
Cc1cc(=O)nc2c3ccccc3n(C(C)C(=O)NCCN3CCOCC3)n12 (stereo not drawn),2.0,16,8,-15,7,6084,2
COC(=O)c1sc2ccccc2c1N,4.8,9,9,-21,5,5435,-8
COC(=O)CSc1snnc1-c1ccc(Cl)cc1Cl,10.0,7,6,-29,8,3236,-3
COc1ccccc1NC(=O)c1nn(-c2ccccc2)ccc1=O,5.5,/,/,-19,-5,2541,1
COc1ccc(S(=O)(=O)N2CC(=O)Nc3ccccc32)cc1F,4.0,2,8,-24,7,3103,-10
N#Cc1ccsc1NC(=O)CCN1C(=O)C2CCCCC2C1=O (stereo not drawn),4.0,15,10,-22,1,3628,/
CCCCOc1ccc(Cc2c(COCC)[nH]c(=S)[nH]c2=O)cc1,/,/,/,-14,/,4517,4
Cc1noc(C)c1C(=O)Nc1nc2ccc(F)cc2s1,4.6,1,-1,-56,-5,3128,/
CCCCNC(=O)CN1CCC2(O)CCCCC2C1c1ccccc1OC (stereo not drawn),8.4,5,5,-32,-2,3334,-7
COC(=O)c1ccc(CSc2ncnc3ccccc23)o1,5.9,4,3,-15,20,5838,5
Cn1c(=O)[nH]c(=O)c2c1nc(N1CCNCC1)n2Cc1cccc2ccccc12,3.6,4,9,-10,-6,4193,4
CCN1CCN(C(=O)Cn2nc(C)n3c(cc4c(OC)cccc43)c2=O)CC1,2.8,-1,6,-14,1,5209,-7
CSc1ccc(C2C(C#N)=C(N)N(c3ccccc3)C3=C2C(=O)CCC3)cc1 (stereo not drawn),-3.6,/,/,-16,-2,4347,-8
CC12CCC(=O)N1C(C(=O)NNC(=O)COc1ccccc1Cl)CS2 (stereo not drawn),3.1,10,0,-21,4,8739,/
CCN(c1ccccc1)S(=O)(=O)c1ccc2c(c1)N(C(C)=O)CCO2,7.0,2,-2,-6,0,5431,4
O=C(NC(=S)N1CCCCCC1)C1CC1,5.8,22,14,-9,9,2553,5
CN1C(=O)C2(CCCCC2)C1c1ccccc1 (stereo not drawn),-0.6,-5,1,-5,-3,3054,/
CCc1ccc2c(CN(C)Cc3ccc(OC(F)F)c(OC)c3)cc(=O)oc2c1,6.4,5,2,-14,-4,3707,4
O=C(NCC1CCN(c2ccc(S(=O)(=O)N3CCOCC3)cc2)CC1)Nc1ccccc1F,3.3,-18,-17,-17,4,3620,-3
CCOc1ccc(/C=C2\SC(=S)N(CC(=O)Nc3ccccn3)C2=O)cc1,0.5,7,8,-26,0,6050,-3
COc1ccc(NC(=O)Nc2nc(C)cc(C)n2)c(OC)c1,2.7,0,2,-8,2,3820,3
CCn1c(C)c(C)c2cc(C(=O)NCCN3CCCCCC3)ccc21,-0.2,5,5,-15,4,7553,12
O=C(Cn1nc(C(=O)O)c2ccccc2c1=O)Nc1ccc(Cl)c(S(=O)(=O)N2CCOCC2)c1,3.4,-3,-4,-7,1,2821,/
COC(=O)[C@]1(CC(C)C)NC(c2ccc(-c3cccc(Cl)c3)cc2)C2C(=O)N(C)C(=O)C21 (stereo partly drawn),-1.8,2,4,/,-3,/,/
CCCCCCc1cc2cc(-c3nnc(-c4ccccc4)o3)c(=O)oc2cc1O,/,/,/,-13,/,4213,-1
CN(CCO)C(=O)c1c(NC(=O)c2ccccc2)sc2c1CCCC2,/,/,/,-12,/,3404,-4
COc1c[nH]n(C2CCCCC2)c(=O)c1=O,0.5,7,1,-3,8,10825,13
O=C(CN(CC1CCCO1)C(=O)CNS(=O)(=O)c1ccc(Cl)cc1)NCCc1ccccc1 (stereo not drawn),4.4,4,-2,/,9,8068,-13
Cc1cc(NC(=O)COC(=O)c2c(C)nn(Cc3ccccc3)c2Cl)no1,2.2,-6,13,-1,2,4058,-7

# Molecules shown so far containing four or more nitrogen atoms (10):
SMILES,RN4220 kill,Mtb hypoxia inh,Mtb hypoxia inh growth,PrP 5UTR inh,ugtP null kill,Autofluor counter,BJeLR viability
CCN(CC)C(=O)C1CCC(CNS(=O)(=O)c2cccc3nsnc23)CC1 (stereo not drawn),0.9,11,1,-10,12,6277,0
CCC(C(=O)NC1CCCC1)N(C(=O)Cn1nnc(-c2ccc(C)o2)n1)c1ccc(OC)cc1 (stereo not drawn),2.5,-2,-2,0,1,4327,3
CCCc1cc(=O)[nH]c(SCC(=O)N2CCN(S(=O)(=O)c3ccc(C)cc3)C2)n1,5.4,12,5,-8,9,4036,6
Cc1cc(=O)nc2c3ccccc3n(C(C)C(=O)NCCN3CCOCC3)n12 (stereo not drawn),2.0,16,8,-15,7,6084,2
Cn1c(=O)[nH]c(=O)c2c1nc(N1CCNCC1)n2Cc1cccc2ccccc12,3.6,4,9,-10,-6,4193,4
CCN1CCN(C(=O)Cn2nc(C)n3c(cc4c(OC)cccc43)c2=O)CC1,2.8,-1,6,-14,1,5209,-7
O=C(NCC1CCN(c2ccc(S(=O)(=O)N3CCOCC3)cc2)CC1)Nc1ccccc1F,3.3,-18,-17,-17,4,3620,-3
COc1ccc(NC(=O)Nc2nc(C)cc(C)n2)c(OC)c1,2.7,0,2,-8,2,3820,3
O=C(Cn1nc(C(=O)O)c2ccccc2c1=O)Nc1ccc(Cl)c(S(=O)(=O)N2CCOCC2)c1,3.4,-3,-4,-7,1,2821,/
Cc1cc(NC(=O)COC(=O)c2c(C)nn(Cc3ccccc3)c2Cl)no1,2.2,-6,13,-1,2,4058,-7

# New compounds follow
SMILES,RN4220 kill,Mtb hypoxia inh,Mtb hypoxia inh growth,PrP 5UTR inh,ugtP null kill,Autofluor counter,BJeLR viability
CC1CCC(NC(=O)c2cccc(S(=O)(=O)N3CCN(C)CC3)c2)CC1 (stereo not drawn),1.3,3,7,-43,5,5847,-1
Clc1ccc(-n2ncc3c(NCCCn4ccnc4)ncnc32)cc1,9.9,10,18,-78,-2,5928,-5
CC(=O)NC(c1ccccc1)c1nc2ccccc2[nH]1 (stereo not drawn),3.7,8,7,-65,11,9086,6
COc1ccc(C2=C/C(=C/c3cccnc3)C(=O)O2)cc1OC,3.1,-7,-3,-11,16,2834,4
CCOC(=O)c1sc2nc3c(SCC(=O)O)cc(C(=O)c4ccccc4O)cn3c(=O)c2c1C,/,/,/,9,/,5972,-2
[N-]=C=C1C(=S)NC(=O)[C@H]([n+]2ccccc2)[C@H]1c1ccc(Cl)cc1,/,/,/,-77,/,3831,-1
COc1ccccc1C(CNC(=O)C(CCSC)NS(=O)(=O)c1ccccc1F)N1CCCC1 (stereo not drawn),5.0,-4,-2,-18,2,4436,8
O=C(CO)NN=Cc1ccc(Cl)cc1,4.4,2,0,/,2,/,/
Cc1cccc(C(=O)OCc2cc3ccccc3[nH]c2=O)c1,-1.1,/,/,-5,0,/,10
CN1C(C(=O)Nc2ncccn2)=C(O)c2ccccc2S1(=O)=O,13,-7,-18,/,9,3607,3
Cn1c(-c2cc3ccccc3oc2=O)nc2ccccc21,-0.2,-4,1,-93,0,6202,-3
O=C(COn1nnc2ccccc21)N1CCN(Cc2ccccc2)CC1,0.7,13,16,-18,9,3967,2
O=[N+]([O-])c1cc(C(F)(F)F)cc([N+](=O)[O-])c1NCCN1CCNCC1,-1.9,16,-2,-23,6,3480,-2
Clc1cc2c(c(Cn3cnc4ccccc43)c1)OCOC2,1.5,10,13,-9,-5,4504,5
Cc1ccc(NC(=O)COc2cccc(/C=C3\SC(=S)N(CCC(=O)O)C3=O)c2)cc1Cl,6.4,10,0,-14,20,5027,3
Cc1nn(-c2ccccc2)c(N2CCCC2)c1C=NNC(=S)Nc1ccccc1C(F)(F)F,-7.9,-9,-6,/,62,/,/
O=C(NC1CCOCC1)C1CCC(=O)N(Cc2ccc(Cl)cc2)C1 (stereo not drawn),1.1,8,-3,3,9,?,-1
COc1ccc2[nH]cc(CCNC(=S)NCCc3ccccc3)c2c1,-7.4,-1,0,9,2,4109,12
COc1cc(C(=O)NC2Cc3ccccc3C2)ccc1OC1CCN(C(C)=O)CC1,/,/,/,-7,/,6178,-4
O=C(CSc1ccccc1)Nc1ccc(C(=O)Nc2ccc(O)cc2)cc1,3.3,2,-5,-8,-4,3898,-6
COc1ccc(NC(=S)N(CCc2c(C)[nH]c3ccccc23)Cc2cccnc2)cc1,-1.3,8,5,2,8,4441,1
Cc1ccc(-n2ncc3c2CC(C)(C)CC3NC(=O)CCc2ccncc2)cc1 (stereo not drawn),-1.2,1,-9,-9,2,4614,10
Cc1cc(C)cc(-n2c(SC(C)C(=O)NCc3ccc4c(c3)OCO4)nc3ccccc3c2=O)c1 (stereo not drawn),-5.1,-14,1,-43,-13,2569,-3
O=C(COC(=O)C1CCC1)NCc1ccc(F)cc1,3.5,1,-8,-14,7,?,15
COc1ccccc1/C=C/C(=O)OCC(=O)NCCC1=CCCCC1,7.2,-4,3,-11,5,4322,7
CC1(C)C(=O)N(CCN2CCC(C(=O)c3ccc(F)cc3)CC2)c2ccccc21,6.5,1,6,53*,10,5010,/
CCCc1nc2ccccc2c(=O)n1/N=C/c1c(C)[nH]n(-c2ccc(C)cc2)c1=O,/,/,/,-1,/,2763,5
CCN1C(=O)N[C@@H](c2cccs2)C(C(C)=O)=C1C,/,/,/,-23,/,2846,-9
CN(C)c1nc(NCc2ccccc2)nc(NN=Cc2ccc3c(c2)OCO3)n1,7.5,-5,11,/,-3,/,/
O=C(CSc1nnc(-c2cccnc2)n1Cc1ccco1)Nc1nc(-c2ccc(F)cc2)cs1,5.0,10,15,-26,6,20486*,3
CCc1ccc(/C=C/C(=O)C2C(=O)c3ccccc3C2=O)cc1,100*,4,15,18,97*,11913,-3
COc1ccc(CCNC(=O)C2CCCN(c3nc(C)cc(C)n3)C2)cc1 (stereo not drawn),3.0,1,2,-19,3,2467,-3
CS(=O)(=O)N(CC(=O)NCC1CCCO1)c1cccc([N+](=O)[O-])c1 (stereo not drawn),3.5,1,-7,3,5,4373,4
CC(c1ccccc1)N1CNc2c(c(=O)n(C)c(=O)n2C)C1 (stereo not drawn),-13,10,11,-7,-5,3160,14
C=CCn1c(=O)c2ccccc2n2c(SCc3cc(=O)n4ccsc4n3)nnc12,1.8,/,/,3,-1,2798,5
COc1ccc(Cl)cc1NC(=O)NC(C)C,4.8,7,2,-31,4,2287,8

# Of the compounds above, these contain bromine.
SMILES,RN4220 kill,Mtb hypoxia inh,Mtb hypoxia inh growth,PrP 5UTR inh,ugtP null kill,Autofluor counter,BJeLR viability
CCOC(=O)N1CCN(CC(=O)Nc2ccc(C)c(Br)c2)CC1,2.1,3,3,-34,1,4190,5
CS(=O)(=O)N(CC(=O)Nc1ccccc1Br)Cc1ccccc1,6.0,15,7,-45,3,3830,1

# Screening results from PubChem.
